# BJeLR viability: MLPCN primary cell-based screen for lethality selective to Ras in HRASV12 cells. BJeLR (HRASV12) viability, CellTiter-Glo ATP luminescence, 48 h; reference of the scale not given here. inhibition, % (concentration not given with the values). 0.17% of 300,000 active;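 active = replicate mean above 50%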;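 note: 50 nL library stock added to about 25 µL; numbers are from one replicate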
# Sa RN4220 lethal: growth inhibition of S. aureus RN4220, primary screen, OD600. 16 h. inhibition, % (no concentration beside the values). 0.33% of 330,000 active;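 active = z-score of -3 or lower and OD600 up to 0.18 on both plates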;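 note: plate controls were untreated cells for no effect and reference antibiotic for full effect; stock transfer was 100 nL into about 80 µL; one replicate is shown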
# PrP 5UTR inh: inhibition of PrP 5' UTR reporter expression; cell-based PrP 5' UTR mRNA reporter, plate reader; inhibition, % (concentration not given with the values); 0.35% of 340,000 active; AID 488862, 2010;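 active = every replicate at 50% or more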;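 note: 0 = median of the neutral control wells; tested in H4 reporter cells; numbers are from one replicate; inactives centre near -14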
# Bead autofluor: counter-screen for toxin protease inhibitors: compound fluorescence; compound autofluorescence counterscreen, microsphere flow cytometry; active compounds read high; fluorescence intensity (test concentration not listed); 3.1% of 360,000 active; AID 624483;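 active = at least 3 SD above the mean of all compounds, about 16000 in these data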;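 note: 100 nL of 1 mM stock went into each well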
# ugtP null kill: growth inhibition of ugtP-null S. aureus, primary screen, RN4220 ugtP deletion, OD600 | 16 h; some inactives read as strong as hits | growth inhibition, % (concentration not given with the values) | 0.54% of 330,000 active;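 active = z-score under -3 and OD600 up to 0.15 on both plates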;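 note: plate controls were untreated wells for no effect and antibiotic for full effect; wells of about 80 µL received 100 nL stock; the first replicate is given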
# Mtb hypoxia rep: PubChem AID 1159583 | M. tuberculosis hypoxia-regulated fluorescent reporter, fluorescence | fluorescence inhibition, % (concentration not given with the values) | 0.1% of 300,000 active;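 active = 35 to 45% if threefold the growth effect, above 45% if 1.5-fold the growth effect; inactive = the rest, general growth blockers included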;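 note: wells of about 50 µL received 100 nL stock; 0% = vehicle wells and 100% = reference inhibitor wells; whole bacteria with a GFP reporter of the hypoxia response; strong numbers were not always called active; many hits fall short of the cut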
# Mtb hypoxia rep growth: further read-out of Mtb hypoxia rep, marked with its call; growth inhibition, %; measured here: M. tuberculosis growth (absorbance);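 0% = vehicle and 100% = reference antibiotic; read after six days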
# Numbers without * were called inactive; . = no result given; & = joins results of further samples.
Compound,Bead autofluor,BJeLR viability,ugtP null kill,Mtb hypoxia rep growth,PrP 5UTR inh,Sa RN4220 lethal,Mtb hypoxia rep
Cc1c(C(=O)NCCc2ccccc2)oc2ccc(S(=O)(=O)N3CCC4(CC3)OCCO4)cc12,3403,-2,9,8,-13,2.8,6
CC1=CC(C)C2C(=O)N(CCC[N+](C)(C)C)C(=O)C2C1 (configuration not stated),3585,7,6,.,-4,-2.2,.
N#C/C(C(=O)NCc1ccccc1)=C1/SC(Cc2ccc(Cl)cc2)C(=O)N1c1ccccc1 (configuration not stated),2257,-7,0,-4,-21,-0.2,9
CC(=NNC(=O)c1cccc(S(=O)(=O)N2CCCC2)c1)c1ccco1,.,.,5,9,.,7.8,2
O=C(NC1CCN(Cc2ccccc2)CC1)c1cccc(NS(=O)(=O)c2ccc(Br)cc2)c1,4550,.,-1,6,-9,5.2,9
CCC12CN3CCN(CC(C3)/C1=N/NC(N)=O)C2,4836,2,.,.,-12,.,.
COc1ccc(OC)c(NC(=O)Cn2c(=O)n(CC3CCCO3)c(=O)c3cc(OC)c(OC)cc32)c1 (configuration not stated),4100,8,9,-3,-20,-1.7,3
O=C(NN=Cc1c[nH]c2ccc(Br)cc12)c1ccccn1,.,.,3,2,.,5.5,3
O=C(CSc1nc2[nH]ncc2c(=O)[nH]1)Nc1ccc(Cl)c(Cl)c1,4357,0,0,-1,-8,0.1,6
Cn1ncc(N=Cc2c(O)ccc3ccccc23)c1C(=O)N1CCOCC1,3097,-7,5,.,0,2.7,.
O=C(NNC(=O)C12CC3CC(CC(C3)C1)C2)c1ccco1,4764,0,3,0,-12,0.2,1
Cc1c(C(=O)N2CCOCC2)[nH]c2c1C(=O)CC(c1ccc(Cl)cc1)C2 (configuration not stated),2954,-4,6,.,-18,0.4,.
O=C(O)c1cc(-c2cccnc2)nc2ccc(Br)cc12,4569,.,6,7,-6,3.2,2
Nc1nonc1-n1nnc(C(=O)N/N=C/c2ccc(OCc3ccccc3)cc2)c1CNc1ccccc1,5604,14,.,.,-22,.,.
Cc1ccc(C(=O)Nc2nc3c(s2)CCCC3)o1,5771,4,-19,6,-71,4.1,-7
COc1cc(OC)cc(C(=O)NNC(=O)C(=O)Nc2cc(OC)c(Cl)cc2OC)c1,6805,-1,.,.,-23,.,.
Cc1ccc(C)c2[nH]c(=O)c(CN(Cc3nnnn3C3CCCCC3)CC3CCCO3)cc12 (configuration not stated),10836,2,-2,10,-12,6.2,2
C=CCOc1ccc(CN(C)CC(=O)N(CC(C)C)c2c(N)n(CC(C)C)c(=O)[nH]c2=O)cc1,4781,5,-10,.,-17,-2.2,.
CCc1cc2c(SCC(=O)Nc3ccc(NC(C)=O)cc3)ncnc2s1,9148,.,-4,-2,-20,2.0,0
COc1cccc(-c2cc(C(F)(F)F)nc(NCc3ccco3)n2)c1,9588,-5,27,6,-9,-1.1,-7
O=C(O)c1ccc(NN=Cc2cccc3nccnc23)cc1,.,.,15,15,.,1.0,17
CC1(C)Cc2nc3scc(NC(=O)c4ccccc4)c3cc2CO1,3522,1,-4,5,.,7.2,16
Cc1nnc(SCC(=O)N(C)CC(=O)Nc2ccccc2Cl)s1,5218,-3,5,-2,-24,2.2,-1
CCCCCCc1cc2cc(S(=O)(=O)c3ccc(C)cc3)c(=O)oc2cc1O,5302,4,8,.,-10,2.7,.
CCC(Sc1nc2ncccc2[nH]1)C(=O)NC1CCC(C)CC1 (configuration not stated),6669,-7,-7,6,-18,-9.5,10
Cc1ccc2nc(-c3cccc(N)c3)oc2c1,8043,-7,2,9,8,10,4
CCOCCCN1CN(Cc2ccccc2)CNC1=S,7684,-3,3,-9,-73,-1.3,-6
O=C(Cc1cn2ccsc2n1)NCCc1ccc(F)cc1,3058,-7,-6,8,11,-14,10
O=[N+]([O-])c1ccc2[nH]c(O)c(N=NC(=S)Nc3cccnc3)c2c1,4947,4,10,-1,-16,13,4
CCc1ccc(OCC(=O)NCCN(C)C)c(Br)c1,2354,-5,-1,12,-3,1.2,10
CC(C)=NNC(=O)C1=NNC(=O)C1,6120,4,5,5,.,3.4,13
Cc1ccccc1OCC(=O)O/N=C(\N)c1ccncc1,5306,-1,1,5,-43,4.5,8
COc1ccc(C(=O)c2c3ccccc3[n+]([O-])n2CCCN)cc1,3553&4281,5,9,11,-26&-31,1.8,2
CC(=O)c1ccc(OCCCC(=O)OCC(=O)Nc2c(C)nn(-c3ccccc3)c2C)cc1,3753,.,1,-4,-11,1.2,8
COC1(OC)C(/C=C\c2ccc(C)cc2)C(C#N)(C#N)C1(OC)OC (configuration not stated),.,.,5,0,.,6.8,-3
O=C(Nc1ccc2nc3n(c(=O)c2c1)CCCCC3)c1ccccn1,5091,6,9,14,-101,2.3,10
CC1Sc2ccc(S(=O)(=O)CCC(=O)N(C)Cc3ccccc3)cc2NC1=O (configuration not stated),5323,3,2,7,-4,3.3,0
CCOC(=O)Nc1ccc2c(COC(=O)C(NS(=O)(=O)c3ccc(Cl)cc3)C(C)O)cc(=O)oc2c1 (configuration not stated),3753,.,-2,11,-76,2.0,9
COc1ccc(NC(=O)NCCC2=CCCCC2)cc1,2159,3,4,9,-64,2.4,17
O=[N+]([O-])c1ccc(N2CCN(CCOc3nonc3-c3ccccc3)CC2)c(Cl)c1,10160,0,4,2,-38,6.2,0
Cc1ccc2c(Cl)cc(Cl)c(OCC(=O)OCC(=O)Nc3ccc(C#N)cc3)c2n1,7745,-9,-5,0,-25,0.4,1
CCCCc1ccc(NC(=O)Nc2cnccn2)cc1,5937,14,3,8,-28,2.9,4
COc1ccc(C(=O)N/C(=C\c2ccc3c(c2)OCO3)C(=O)NCCc2nc3ccccc3[nH]2)cc1,2460,0,6,8,4,2.3,9
O=C(Cn1cnc2ccccc21)Nc1cccc([N+](=O)[O-])c1,3921,5,.,.,-22,.,.
COc1cc2cc(-c3ccc(O)cc3O)nc(C)c2cc1OC,3783,-7,4,7,-15,19,2
CN(C(=O)COC(=O)Cn1cnc2c1c(=O)n(C)c(=O)n2C)C1(C#N)CCCCC1,.,.,3,4,-9,2.9,10
COCCCNC(=O)C(Cc1ccccc1)NS(=O)(=O)c1ccc2c(c1)c(=O)n(C)c(=O)n2C (configuration not stated),7854,-11,7,2,-7,2.9,-2
O=C(Nc1cccnc1Cl)c1noc2c1CCc1ccccc1-2,3643,2,6,2,-59,4.1,9
Cc1ccc(S(=O)(=O)N(C)C)cc1NC(=O)C(C)OC(=O)c1ccc2c(c1)OCCO2 (configuration not stated),4196,2,1,5,-15,4.7,8
COc1ccc(C(=O)N/N=C/c2ccc(OC)c(CN3CCCc4ccccc43)c2)cc1,7265,3,.,.,-17,.,.

# Part of the list above in a different format.
# Each structure is followed by: Bead autofluor | BJeLR viability | ugtP null kill | Mtb hypoxia rep growth | PrP 5UTR inh | Sa RN4220 lethal | Mtb hypoxia rep
- COCCCNC(=O)C(Cc1ccccc1)NS(=O)(=O)c1ccc2c(c1)c(=O)n(C)c(=O)n2C (configuration not stated)
→ 7854 | -11 | 7 | 2 | -7 | 2.9 | -2
- O=C(Nc1cccnc1Cl)c1noc2c1CCc1ccccc1-2
→ 3643 | 2 | 6 | 2 | -59 | 4.1 | 9
- Cc1ccc(S(=O)(=O)N(C)C)cc1NC(=O)C(C)OC(=O)c1ccc2c(c1)OCCO2 (configuration not stated)
→ 4196 | 2 | 1 | 5 | -15 | 4.7 | 8
- COc1ccc(C(=O)N/N=C/c2ccc(OC)c(CN3CCCc4ccccc43)c2)cc1
→ 7265 | 3 | . | . | -17 | . | .

# Part of the list above with just Mtb hypoxia rep growth.
molecule | Mtb hypoxia rep growth
COc1cc2cc(-c3ccc(O)cc3O)nc(C)c2cc1OC | 7
CN(C(=O)COC(=O)Cn1cnc2c1c(=O)n(C)c(=O)n2C)C1(C#N)CCCCC1 | 4

# (list continues)
Compound,Bead autofluor,BJeLR viability,ugtP null kill,Mtb hypoxia rep growth,PrP 5UTR inh,Sa RN4220 lethal,Mtb hypoxia rep
Cc1cc(C)c2c(n1)SCC(=O)N2CC(=O)Nc1ccc(C)c(C)c1,6011,-5,12,.,-16,-0.3,.
CC(=O)c1c(C)[nH]c(C(=O)COC(=O)COc2ccccc2)c1C,8125,.,6,9,-16,-1.8,3
O=C(O)c1cccc(NN=CC2=C(Cl)c3cc(Cl)ccc3SC2)c1,.,.,18,1,.,-2.2,7
CCOc1ccccc1-c1cc(C(=O)N/N=C/c2cccnc2)c2ccccc2n1,6429,-15,.,.,-16,.,.
CCOc1ccc(C(C)=O)cc1COC(=O)C1=COCCO1,3201,7,5,10,0,3.4,6
Cc1ccc(-n2nnnc2-c2ccco2)cc1,4255,3,2,5,-12,2.9,1
CCOC(=O)c1ccc(NC(=O)CSc2nnc(-c3cccs3)n2C)cc1,3429,-2,0,2,-14,-2.3,4
OCc1nc2ccccc2n1N=Cc1cccs1,.,.,3,0,.,9.3,8
NC1=NC[C@H](Cc2ccc(O)cc2)N1CCc1cc(C(F)(F)F)cc(C(F)(F)F)c1,4638,23,.,.,-21,.,.
CCCCn1c(O)c(/C=C2\C=Nc3ccccc32)c(=O)[nH]c1=O,3902,-10,.,.,-6,.,.
COCCNC(=O)C(=O)N/N=C/c1ccccc1C(F)(F)F,4866,3,.,.,-5,.,.
O=C(Nc1ccccc1O)c1cc(S(=O)(=O)N2CCOCC2)c(Cl)cc1Cl,13032,8,-8,0,3,-0.6,-1
COc1ccccc1NC=C1C(=O)OC2(CCCCC2)OC1=O,9820,-5,-4,-2,-32,3.9,-5
CC(C)CCCC(C)NS(=O)(=O)Cc1ccccc1 (configuration not stated),9671,9,-2,4,-31,9.8,17
Cc1nn(Cc2c(F)c(F)c(F)c(F)c2F)c(C)c1NC(=O)c1c([N+](=O)[O-])c(C)nn1C,8510,11,-7,5,-3,6.1,3
O=C(NCCc1ccccc1)C1CCN(S(=O)(=O)N2CCCCC2)CC1,5018,-4,0,4,-6,1.7,13
CCOc1ccc(CCNC(=O)COC(=O)CSc2ccccc2C)cc1OCC,5602,8,-1,8,-5,6.0,1
CC(C)=CCCC(C)CN(C)CCc1ccccn1 (configuration not stated),21319*,-17,2,.,-10,3.2,.
[O-][n+]1c2ccc3nonc3c2nn1-c1ccccc1Cl,8663,0,-4,8,-18,2.0,7
COc1cc(-c2cc(C(=O)Nc3c(Cl)cc(Cl)cc3Cl)c3ccccc3n2)cc(OC)c1OC,2185,1,-24,5,-13,-0.1,0
COc1ccc(CCNC(=O)CSc2nnc(CNC(=O)c3c(F)cccc3Cl)o2)cc1OC,5648,0,10,2,-10,4.4,7
COC(=O)C1CCN(C(=O)COC(=O)c2ccc(N3CCCC3=O)cc2)CC1,3889,.,5,3,-1,5.2,7
COc1ccccc1C(=O)C1CCCN(Cc2cnc(C)s2)C1 (configuration not stated),4695,-9,3,5,-11,2.0,14
CCC(C)[C@H](NC(=O)N1CCCCC1)C(=O)OC (some centres not stated),4756,-3,2,-5,-15,3.1,0
C=CCn1c(SCC(=O)Nc2nccs2)nnc1-c1ccco1,4002,2,3,5,-17,5.9,22
COC(=O)C1=C(C)NC2=C(C(=O)CC(C)(C)C2)C1c1cn(Cc2ccc(Br)cc2)nc1-c1ccccc1 (configuration not stated),3523,7,-4,11,0,7.2,6
CC(NC(=O)C1CCN(S(=O)(=O)c2cc([N+](=O)[O-])ccc2Cl)CC1)c1ccccc1 (configuration not stated),2268,6,3,0,-18,2.5,-20
Cc1ccc(NC(=O)CSCC#N)cc1,18468*,-1,8,3,-26,4.3,4
Cc1ccc(C(=O)c2c3ccc([N+](=O)[O-])cc3[n+]([O-])n2CCC(N)=O)cc1,.,3,61,19,-31,54,24
C=C(C)c1cccc(C(C)(C)NC(=O)NCC2CCCO2)c1 (configuration not stated),4627,7,-8,.,-14,1.1,.
O=C1c2ccncc2C(=O)N1c1cccc(Cl)c1,2327,-4,10,12,-7,0.6,-4
CCN(CC)C(=O)Cn1cc(/C=C2\C(=O)NC(=O)N(c3ccccc3F)C2=O)c2ccccc21,3074,-1,14,2,-26,0.0,10
O=C1C=C(c2cccc(OCc3ccccc3)c2)CC(c2ccc3c(c2)OCO3)C1 (configuration not stated),.,.,-3,4,.,4.1,11

# High-throughput results from PubChem.
